Screening data (PubChem)
rRNA inh HTS = reduced GFP signal of wild-type E. coli, primary screen, bacterial rRNA inhibitor project, GFP/RFP fluorescence, OD600, single point. AID 720706, 2013. E. coli WT GFP vs humanized-ribosome RFP mutants, 24 h; stronger effect = lower value; DMSO median 0, no signal -100. actives 1.6% (n = 350,000). GFP signal change (wild-type ribosome), % (concentration not given with the values);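 active = significant combined selectivity score with lowered wild-type GFP, culture density cut under 30%, mutant RFP and density less affected; inactive = any of these conditions unmet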; also: one replicate is shown; some compounds called inactive have numbers as strong as hits
FGF22 binding = binders of human FGF22 protein, primary screen, FGF22 synaptogenesis inhibitor project, biophysical, thermal shift, single point; Fibroblast growth factor 22 (Homo sapiens), Q9HCT0; recombinant FGF22 thermal shift, SYPRO orange fluorescence; percent of sucrose octasulfate shift, DMSO zero; calls only at 9.99 µM; actives 1.5% (n = 340,000); AID 651658, 2012;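 active = melting point raised past a set limit in the mean and every replicate; three in four hits are not shown here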
Target sequence (Q9HCT0 whole entry, looked up): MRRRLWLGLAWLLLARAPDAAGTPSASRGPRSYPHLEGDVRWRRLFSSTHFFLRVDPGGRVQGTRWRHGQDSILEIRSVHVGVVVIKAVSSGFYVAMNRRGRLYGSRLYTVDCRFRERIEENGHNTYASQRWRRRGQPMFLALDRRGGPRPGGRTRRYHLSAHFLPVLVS
Ecoli growth = E. coli growth inhibition, primary screen, OD600 | Escherichia coli growth, 23 h; stronger effect = lower value | OD600 absorbance (concentration not given with the values) | actives 0.21% (n = 330,000) | AID 1053175, 2014;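 active = OD600 absorbance below the run mean of sample wells minus 3.6 SD, in any replicate, cut at about 0.56 in these data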;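 also: stock transfer was 300 nL into about 60 µL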
HNF4A DNA FP = change in binding of human HNF4A to DNA, primary screen, biochemical, fluorescence polarization, FITC-DNA; 1 h; activity change, % at 10 µM; actives 0.3% (n = 360,000); AID 1224865, 2016; in the data active = activity change above about 30%, passing the limit was not always enough;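 also: controls were the assay level and a saturating level of protein; the project sought stronger binding though the title names inhibitors; some compounds called inactive have numbers as strong as hits; positive values seem to mean higher polarization but the record does not say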
Target sequence (P41235 whole entry, looked up): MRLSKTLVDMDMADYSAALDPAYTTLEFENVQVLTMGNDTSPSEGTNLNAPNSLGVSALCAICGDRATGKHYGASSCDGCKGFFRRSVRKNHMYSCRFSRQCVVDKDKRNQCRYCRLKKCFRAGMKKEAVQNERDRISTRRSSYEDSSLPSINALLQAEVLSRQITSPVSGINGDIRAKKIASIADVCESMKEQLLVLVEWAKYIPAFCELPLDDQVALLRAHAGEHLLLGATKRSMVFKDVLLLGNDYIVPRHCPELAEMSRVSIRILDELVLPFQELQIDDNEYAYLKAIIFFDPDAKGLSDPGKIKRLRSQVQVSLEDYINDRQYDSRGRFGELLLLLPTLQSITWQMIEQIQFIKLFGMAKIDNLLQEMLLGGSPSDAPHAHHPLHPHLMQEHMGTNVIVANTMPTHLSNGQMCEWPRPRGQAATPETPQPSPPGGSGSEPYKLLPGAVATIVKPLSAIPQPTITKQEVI
ALR inh = inhibitors of human ALR sulfhydryl oxidase, primary screen, biochemical, H2O2 detection, HRP-luminol luminescence, single point; actives 3.8% (n = 290,000); FAD-linked sulfhydryl oxidase ALR (Homo sapiens), P55789; purified ALR, DTT oxidation; inhibition, % (concentration not given with the values);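 active = mean and each replicate at 75% or more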;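 also: stock transfer was 7.5 nL into about 7.5 µL; 0% = neutral wells and 100% = wells with inactivated enzyme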
Target sequence (P55789 whole entry, looked up): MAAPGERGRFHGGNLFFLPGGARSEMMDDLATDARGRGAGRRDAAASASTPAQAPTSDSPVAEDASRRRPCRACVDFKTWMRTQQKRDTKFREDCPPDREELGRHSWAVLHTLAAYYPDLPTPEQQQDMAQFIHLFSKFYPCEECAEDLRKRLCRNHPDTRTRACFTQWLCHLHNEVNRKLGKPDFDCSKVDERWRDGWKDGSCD
MLL AF4-AF9 inh = inhibitors of AF4 peptide binding to AF9, primary screen, biochemical, AlphaScreen, biotin-AF4 peptide, FLAG-AF9, single point | AID 651704, 2012 | inhibition, % at 10 µM | Protein AF-9 (Homo sapiens), P42568 | actives 0.47% (n = 350,000);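 active = every replicate reaching a set inhibition limit, whatever the replicate mean, cut at about 25% in these data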;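 also: 0% = plate neutral control median and 100% = total signal loss; the record names both 10 and 1 µM as test concentration; the first replicate is given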
Vif TR-FRET = inhibitors of Vif binding to APOBEC3G peptide, primary screen, biochemical, TR-FRET, GST-Vif 1-94, biotin-A3G peptide, dose response retest (AID 1117319); TR-FRET GST-Vif / biotin-A3G peptide binding; higher % means a stronger effect; test concentration not given here; strong numbers were not always called active; Virion infectivity factor (Human immunodeficiency virus type 1 group M subtype B (isolate …; actives 0.57% (n = 260,000); inhibition, %, or IC50 in µM where a hit was titrated;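 active = above the screen mean plus three standard deviations and confirmed in dose response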;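 also: Vif residues 1-94 fused to GST binding biotinylated APOBEC3G peptide 110-148; 0% = full assay without inhibitor and 100% = GST in place of GST-Vif; retest series ran down from 100 µM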
rRNA inh HTS OD600 = further read-out of rRNA inh HTS, marked with its call; OD600 change, %; measured here: OD600 growth;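 optical density of the mix in the first replicate; 0 = DMSO median and -100 = no signal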
rRNA inh HTS RFP = further read-out of rRNA inh HTS, marked with its call; RFP signal change, %; measured here: RFP humanized mutant strains;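 first replicate; 0 = DMSO median and -100 = no signal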
Starred values were filed as active, the others as inactive; i = inactive; . = no result given; & = joins results of further samples. These rows are one share of the data, so the mix of outcomes need not match the whole.

SMILES	rRNA inh HTS	rRNA inh HTS OD600	rRNA inh HTS RFP	FGF22 binding	Ecoli growth	HNF4A DNA FP	ALR inh	MLL AF4-AF9 inh	Vif TR-FRET
CCOC(=O)/C=C/[C@H]1CCc2cccc(C)c2O1	-1.4	4.5	-9.3	i	.	4.4	5.7	0.1	.
O=S(=O)(c1ccc(F)cc1)N1CCCCN2[C@@H](CO)[C@@H](c3ccc(-c4ccccc4)cc3)[C@@H]2C1	-59.2	-71.4	-9.8	i	.	.	.	-3.4	.
O=C(NNC(=O)C1CC1c1ccccc1)c1cccc([N+](=O)[O-])c1 (centres undefined)	.	.	.	.	0.67	-5.4	-2.9	.	.
Cc1cccc(C)c1NC(=O)NN=C1CCCCC1	9.8	-2.1	4.1	i	0.696	2.2	3.7	-2.6	17.3%
C[C@H]1CN([C@@H](C)CO)S(=O)(=O)c2ccc(-c3cccc(C#N)c3)cc2O[C@@H]1CN(C)C(=O)c1ccccc1	-11.2	-7.2	4.6	i	.	.	.	0.1	.
C=CCN1C(=O)c2ccc(C(=O)NCC(c3ccccc3)N(C)C)cc2C1=O (centres undefined)	12.1	9.1	-0.4	i	0.727	4.1	-4.3	-2.5	-9.1%
O=C(NCc1ccccc1)[C@H]1C[C@@H]1[C@H](NP(=O)(c1ccccc1)c1ccccc1)c1ccccc1	10.1	15.9	-13.3	i	.	0.6	3.7	-3.6	-1.2%
O=C(c1cc(Cl)ccc1Cl)N1CCN(Cc2ccccc2)CC1	-4.6	-2.7	2.2	i	0.718	4.6	-1.5	1.8	.
C[C@@H]1CN([C@@H](C)CO)C(=O)c2cc(C#Cc3cccc(F)c3)cnc2O[C@@H]1CN(C)C(=O)C1CC1	-2.1	-6.7	-0.4	i	.	.	.	-0.2	.
Cc1nc(NC(=O)CCC(=O)O)sc1C(=O)N(C)C	.	.	.	.	0.715	-1.4	0.2	.	-0.5%
CC(OC(=O)c1cccnc1Cl)C(=O)Nc1ccc(S(N)(=O)=O)cc1 (centres undefined)	7.9	9.1	-5.0	i	0.674	3.0	-8.1	-1.0	1.4%
O=C1CCCC/C1=C/Nc1ccc(C(=O)O)cc1	-12.3	-14.0	0.9	i	0.626	-1.9	-1.4	6.0	28.3%
CC(=O)c1cccc(-n2nnnc2SCC(=O)NNC(=O)C2CCCCC2)c1	15.7	12.5	1.9	i	0.688	0.4	-6.5	0.6	.
Cn1c(=O)c2c(nc(NCc3ccco3)n2CC(O)COc2ccccc2)n(C)c1=O (centres undefined)	.	.	.	.	0.733	-5.1	.	.	7.9%
CN(C)C(C)(C)C#CCC(c1ccccc1)c1ccccc1	.	.	.	.	0.619	-1.0	-59.7	.	-0.9%
CO[C@H](CN(C)C(=O)Nc1ccc(C(F)(F)F)cc1)[C@@H](C)CN(Cc1ccccc1Cl)[C@H](C)CO	-44.2	-73.7	3.7	i	.	.	.	1.3	.
O=c1[nH]c(CN(CCc2ccccc2)S(=O)(=O)c2ccc(Cl)cc2)nc2ccccc12	-15.9	-30.0	2.7	i	0.712	-5.5	.	1.5	.
CCN(CC)C(=O)c1[nH]cnc1C(=O)NCc1ccccc1	.	.	.	.	0.689	-1.0	1.7	.	.
CCOC(=O)c1cc(C)nn1-c1nc(Cl)cc(OC)n1	-15.3	-18.6	-9.9	i	.	1.0	2.6	5.2	-6.5%
CCOC(=O)Cc1nnc(NC(=O)CSc2ncc(-c3ccccc3)nn2)s1	6.8	-3.1	4.9	i	0.693	0.1	-8.4	-2.5	3.0%
COc1ccc(Br)cc1C(=O)Nc1cccc(-c2nnc(-c3ccco3)o2)c1	.	.	.	.	0.676	48.6*	-1.6	.	.
COc1ccc(NC(=O)N[C@@H]2CC[C@H](CCn3cc(-c4ccccc4)nn3)O[C@@H]2CO)cc1	1.7	0.5	-0.1	i	.	.	.	0.0	.
CSc1cccc(NC(=O)C2CC(=O)N(c3ccc4c(c3)OCCO4)C2)c1 (centres undefined)	-2.6	-6.9	-1.3	i	.	4.6	.	-2.5	.
CCCCCC(=O)N1CCN(CCN=CC2=C(O)CC(c3ccc(OC)cc3)CC2=O)CC1 (centres undefined)	15.7	18.4	2.5	i	0.663&0.685	-1.9&2.9	-0.5	-0.5	2.0%&17.3%
CCc1nc(NCc2ccc3c(c2)OCO3)c2oc3ccccc3c2n1	.	.	.	.	0.675	6.4	-1.4	.	5.2%
Further structures
SMILES	rRNA inh HTS	rRNA inh HTS OD600	rRNA inh HTS RFP	FGF22 binding	Ecoli growth	HNF4A DNA FP	ALR inh	MLL AF4-AF9 inh	Vif TR-FRET
O=C1C=C(c2cc(C(F)(F)F)cc(C(F)(F)F)c2)C[C@@H](c2ccc3c(c2)OCO3)C1	2.9	-5.2	-18.9	i	0.776	0.9	-3.1	9.4	.
COc1cccc(-c2nc3n(n2)C(c2cccs2)C(C(=O)Nc2cccnc2)=C(C)N3)c1 (centres undefined)	-2.5	-1.8	-0.9	i	0.741	0.9	30.7	-0.8	74.8%
CCCCCCCC(=O)N1c2ccccc2NC(=O)C1CC(=O)Nc1ccc(C(=O)O)cc1 (centres undefined)	-0.5	-5.3	-7.0	i	0.633	-0.5	-2.9	2.9	-8.9%
Cc1ccc(-c2nnn(CC(=O)N(Cc3cccs3)C(C(=O)NC(C)(C)C)c3ccco3)n2)o1 (centres undefined)	.	.	.	.	0.684	-1.4	-1.4	.	-4.3%&5.6%
N#Cc1c(N2C(=O)Nc3ccccc3N2O)sc2c1CCCC2	-24.6	-27.8	-4.0	i	0.716	-0.8	24.4	-2.6	-3.5%
CN(C)CCCNC(=O)[C@@H]1[C@@H](CO)[C@@H]2Cn3c(ccc(C4=CCCC4)c3=O)[C@@H]2N1CCC(F)(F)F	2.0	-6.2	-0.5	i	.	.	.	6.5	.
N#Cc1c(SCC(N)=O)nsc1SCc1ccccc1Cl	.	.	.	.	0.759	2.9	22.8	.	1.4%&7.2%
C=CCNC(=O)c1onc(CSc2ccncc2)c1C(=O)NCC=C	4.6	-6.3	-11.8	i	0.654	4.9	-1.4	-7.1	5.5%
Cc1ccc(SCC(=O)Nc2ccc(N3CCN(C)CC3)c(F)c2)c(C)c1	1.8	2.9	1.0	i	0.655	-3.7	-0.9	0.9	.
CCN1CCN(C(c2cccs2)C(C)NS(=O)(=O)c2ccccc2)CC1 (centres undefined)	4.4	17.6	-0.9	i	0.714	-1.6	3.1	-4.5	-11.1%
CC(C)NC(=O)N(C)C[C@@H]1OCCCC[C@H](C)Oc2ccc(NS(=O)(=O)c3ccc(Cl)cc3)cc2C(=O)N([C@@H](C)CO)C[C@@H]1C	-4.0	-13.5	0.8	i	.	.	.	0.5	.
O=C1c2cccc3cc([N+](=O)[O-])cc(c23)C(=O)N1CCN1CCCC1	4.4	-25.3	10.5	i	.	-21.9	.	-2.4	11.0%
O=S1(=O)[C@H]2C[C@H](CO)O[C@@]2(CO)CN1Cc1ccc(-c2ccc(F)cc2)cc1	-25.0	-22.4	1.2	i	0.704	-0.4	.	1.5	-3.3%
COc1cc(C2NC(=O)NC(O)(C(F)(F)F)C2C(=O)c2ccc(Cl)cc2)ccc1O (centres undefined)	.	.	.	.	0.694	-0.4	45.6	.	-11.5%
Oc1ccc(C=NNC(=S)Nc2ccc(F)cc2)c(O)c1	-21.9	-31.4	-0.2	i	0.722	3.7	.	9.8	2.7%
CCC1C(C#N)=C(SC)NC2=C1C(=O)CC(C)(C)C2 (centres undefined)	.	.	.	.	0.677	2.6	6.3	.	11.4%
CN1CCN(S(=O)(=O)c2ccc(N)cc2)CC1	1.1	4.5	-1.0	i	0.76	1.8	96.1*	-2.2	15.8%
COc1ccc(NC(=O)c2ccccc2NC(=O)COc2ccccc2)cc1	.	.	.	.	0.734	0.3	-3.0	.	1.9%
Cc1ccc(S(=O)(=O)N2CCC(C(=O)NN3CCCCC3)CC2)cc1	19.0	14.4	0.8	i	0.669	-1.9	-2.7	0.1	-10.9%
CCc1ccc(/C=C2\Oc3c(ccc(O)c3CN3CCN(CCO)CC3)C2=O)cc1	4.9	-6.7	2.4	i	0.691	0.3	13.8	3.4	3.5%
COc1cc(CN2CCCCC2)ccc1OCc1ccccc1	20.1	14.4	-0.3	i	0.7	3.2	.	6.2	.
CCC(=O)n1nc(-c2cccnc2)nc1NCc1cccs1	19.1	8.6	-2.4	.	0.69	0.6	.	-2.3	-9.4%
CCC(C)NC(=O)c1ccccc1NC(=O)Nc1ccccc1 (centres undefined)	.	.	.	.	0.694	-2.2	-1.6	.	-3.7%
c1ccc(CSc2ncccn2)cc1	.	.	.	.	0.649	-0.1	-3.1	.	-1.2%
O=C(CN1CCN(C(=O)c2ccco2)CC1)NCc1ccc(Cl)cc1	-1.0	6.1	-1.5	i	0.712	-6.1	6.4	-16.0	.
CC1CCCC(C)N1CCCNC(=O)CN1C(=O)c2cccnc2Oc2ccc(Cl)cc21 (centres undefined)	13.5	14.3	-1.6	i	0.752	1.3	0.2	-0.8	-3.9%
COc1ccccc1C(=O)Nc1ccccc1C(=O)Nc1ccccc1	25.3	13.1	4.4	i	0.671	4.0	4.9	4.0	.
CCOc1ccccc1CNc1ccc(O)cc1	6.9	7.3	56.8	i	0.622	0.6	.	3.0	-1.1%

Of the compounds above, these have fluorine.
SMILES	rRNA inh HTS	rRNA inh HTS OD600	rRNA inh HTS RFP	FGF22 binding	Ecoli growth	HNF4A DNA FP	ALR inh	MLL AF4-AF9 inh	Vif TR-FRET
O=S(=O)(c1ccc(F)cc1)N1CCCCN2[C@@H](CO)[C@@H](c3ccc(-c4ccccc4)cc3)[C@@H]2C1	-59.2	-71.4	-9.8	i	.	.	.	-3.4	.
C[C@@H]1CN([C@@H](C)CO)C(=O)c2cc(C#Cc3cccc(F)c3)cnc2O[C@@H]1CN(C)C(=O)C1CC1	-2.1	-6.7	-0.4	i	.	.	.	-0.2	.
CO[C@H](CN(C)C(=O)Nc1ccc(C(F)(F)F)cc1)[C@@H](C)CN(Cc1ccccc1Cl)[C@H](C)CO	-44.2	-73.7	3.7	i	.	.	.	1.3	.
O=C1C=C(c2cc(C(F)(F)F)cc(C(F)(F)F)c2)C[C@@H](c2ccc3c(c2)OCO3)C1	2.9	-5.2	-18.9	i	0.776	0.9	-3.1	9.4	.
CN(C)CCCNC(=O)[C@@H]1[C@@H](CO)[C@@H]2Cn3c(ccc(C4=CCCC4)c3=O)[C@@H]2N1CCC(F)(F)F	2.0	-6.2	-0.5	i	.	.	.	6.5	.
Cc1ccc(SCC(=O)Nc2ccc(N3CCN(C)CC3)c(F)c2)c(C)c1	1.8	2.9	1.0	i	0.655	-3.7	-0.9	0.9	.
O=S1(=O)[C@H]2C[C@H](CO)O[C@@]2(CO)CN1Cc1ccc(-c2ccc(F)cc2)cc1	-25.0	-22.4	1.2	i	0.704	-0.4	.	1.5	-3.3%
COc1cc(C2NC(=O)NC(O)(C(F)(F)F)C2C(=O)c2ccc(Cl)cc2)ccc1O (centres undefined)	.	.	.	.	0.694	-0.4	45.6	.	-11.5%
Oc1ccc(C=NNC(=S)Nc2ccc(F)cc2)c(O)c1	-21.9	-31.4	-0.2	i	0.722	3.7	.	9.8	2.7%
